KCNQ2 inh: KCNQ2 potassium channel inhibitors, primary screen, cell-based, CHO-K1, FluxOR thallium flux, B-score (AID 2156); 20 min; stronger effect = lower value; only compounds with negative scores are shown here; some inactives read as strong as hits; B-score at 10 µM; 310,000 compounds, 1.1% hits;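 active means fluorescence ratio B-score at most minus 3 library SDs, with starting brightness B-score within 2 library SDs, cut at about -5.5 in these data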
Target sequence (O88943 whole entry, looked up): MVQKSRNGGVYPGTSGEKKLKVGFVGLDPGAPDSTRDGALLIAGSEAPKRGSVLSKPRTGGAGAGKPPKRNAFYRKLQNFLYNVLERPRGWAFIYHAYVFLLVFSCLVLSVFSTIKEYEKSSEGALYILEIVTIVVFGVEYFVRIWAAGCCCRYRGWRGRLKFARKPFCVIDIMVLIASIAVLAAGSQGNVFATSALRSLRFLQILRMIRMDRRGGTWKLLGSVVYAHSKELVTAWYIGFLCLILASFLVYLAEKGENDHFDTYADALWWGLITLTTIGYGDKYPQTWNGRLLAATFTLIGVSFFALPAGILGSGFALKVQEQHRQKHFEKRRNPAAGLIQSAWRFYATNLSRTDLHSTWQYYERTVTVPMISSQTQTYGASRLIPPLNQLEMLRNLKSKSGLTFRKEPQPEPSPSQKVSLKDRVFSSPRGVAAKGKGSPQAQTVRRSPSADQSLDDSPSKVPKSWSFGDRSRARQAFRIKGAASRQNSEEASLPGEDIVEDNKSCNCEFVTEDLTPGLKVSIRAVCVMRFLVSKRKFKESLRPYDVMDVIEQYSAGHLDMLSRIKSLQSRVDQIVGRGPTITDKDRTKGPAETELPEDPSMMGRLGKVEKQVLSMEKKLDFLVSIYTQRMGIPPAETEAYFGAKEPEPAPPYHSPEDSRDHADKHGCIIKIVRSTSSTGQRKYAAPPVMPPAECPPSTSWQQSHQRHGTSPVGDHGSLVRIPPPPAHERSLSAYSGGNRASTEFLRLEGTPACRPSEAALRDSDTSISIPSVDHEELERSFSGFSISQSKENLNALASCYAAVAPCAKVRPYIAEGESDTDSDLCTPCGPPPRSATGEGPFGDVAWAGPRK
KCNQ2 inh baseline: recorded beside KCNQ2 inh, whose call it bears; B-score; measured here: initial fluorescence intensity artifact check;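 brightness before thallium and not channel activity; 0 = typical well and far values either way flag optical interference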
* marks the source's active call; other numbers are inactive results; i = inactive. This is a subset. The share of hits here may be higher or lower than overall.

SMILES | KCNQ2 inh | KCNQ2 inh baseline
Cc1ccc(-c2cc(C(=O)N/N=C/c3ccccc3O)n[nH]2)o1 | i | 0.9
CCCCN(CCCC)CCCN1CC(=O)N2[C@@H](Cc3c([nH]c4ccccc34)C2(C)C)C1=O | i | 0.17
CC(c1ccco1)N(C(=O)CSc1ccc(Br)cc1)c1ccccn1 (stereo not given) | i | -0.75
Cn1nc(N)nc1N1CCN(c2ccc(F)cc2)CC1 | i | -0.01
CC1(C)CC(NC(=O)c2ccccc2C(=O)NC2CC(C)(C)NC(C)(C)C2)CC(C)(C)N1 | i | 4.5
CCN1C(=NCC(C)C)N[C@@H](c2cccc(F)c2)C(C(=O)OC)=C1C | i | -0.17
COc1ccc(N2C(=O)CC(Cc3ccc(Br)cc3)C2=O)cc1 (stereo not given) | i | 1
COc1ccc(/C=N/NC(=O)CCn2c3ccccc3c3ccccc32)cc1O | i | -1.1
CCN1C(=O)[C@H]2[C@@H](c3ccc(-c4ccc(F)cc4)cc3)N[C@@](Cc3ccccc3)(C(=O)OC)[C@H]2C1=O | i | -0.12
COc1cc(C)ccc1OCCOc1c(Cl)cc(Cl)cc1Cl | i | -1.1
Cc1ccccc1N1C(=O)C2C3C=CC(CC3)C2C1=O (stereo not given) | i | 0.04
Nc1c(NCCN2CCCCC2)c2ccccc2oc1=O | i | -1.5
COc1ccccc1C(=O)NCCC(=O)NCCOc1ccccc1 | i | -0.42
Cc1[nH]c2ccccc2c1C(O)c1ccncc1 (stereo not given) | i | -1.7
CCOC(=O)c1sc(NC(=O)CN2CCN(c3ccc(OC)cc3)CC2)nc1C | i | -0.39
COc1ccc(CNC(=O)CCSc2nc(-c3ccc4c(c3)OCO4)cc(C(F)(F)F)n2)cc1 | i | -0.69
Cc1cc(Br)c2c(c1)C1(OCCO1)C(=O)N2 | i | 1.7
CCCSC1C(C)=C(C)C(=O)N1Cc1ccccc1 (stereo not given) | i | -1.8
O=C(NCCSCc1ccccc1)c1ccc(C2SCC(=O)N2Cc2ccccc2)cc1 (stereo not given) | i | 0.07
NC(=O)C1CCN(C2CC(=O)N(c3cccc(F)c3)C2=O)CC1 (stereo not given) | i | -0.7
O=C1CCC([N+](=O)[O-])C(c2ccc(F)c(Br)c2)N1 (stereo not given) | i | -0.35
CCCC(=O)Nc1nnc(SCC(=O)NCc2ccc3c(c2)OCO3)s1 | i | -1.4
CCC1Sc2ccc(S(=O)(=O)CCC(=O)NC3CCCCCC3)cc2NC1=O (stereo not given) | i | 0.32
CCOC(=O)[C@H]1[C@H]2COc3cc(OC)ccc3[C@@H]2N2C(=O)N(c3ccc(Cl)cc3)C(=O)[C@@]12C | i | 2.7
Clc1ccc(Oc2cnns2)cc1Cl | i | -0.43
CCc1ccccc1NC(=O)CSc1nnc(Cn2cnc3ccccc32)o1 | i | -0.49
Cc1ccc(CS(=O)Cc2ccc(C(=O)NCc3ccccc3Br)o2)cc1 (stereo not given) | i | -0.24
Cc1ccccc1-c1nnc(SCC(=O)NC2CCCCC2)o1 | i | 0.18
COc1cccc(CNS(=O)(=O)c2ccc3c(c2)CC(C)N3C(=O)C2CC2)c1 (stereo not given) | i | -0.02
COc1cccc(/C=N/NC(=S)NCCc2ccccc2)c1OC | i | -0.4
COc1ccccc1/C=C/C(=O)OCC(=O)Nc1ccccc1Sc1ccccc1 | -6.8* | -1.8*
COc1cc(C[C@@H](CO)[C@H](CO)Cc2ccc(O)c(OC)c2)ccc1O | i | -1.7
CC(=O)C(Sc1nc(NC(C)(C)C)nc(N(C)C)n1)C(C)=O | i | -0.6
COc1cccc(C(=O)N2CCN(Cc3ccco3)CC2)c1OC | i | -2.4
CCOc1ccccc1-c1nc(CN2CCN(C(=O)c3ccco3)CC2)c(C)o1 | i | 1.1
c1csc(-c2nc(CN3CCSCC3)cs2)c1 | i | -0.61
COC(=O)C1CCN(c2ccc(Cl)nn2)CC1 | i | 0.12
Cc1ccsc1/C=N/NC(=O)Cc1cccn1C | i | -1
Cc1cc(NCCO)c2cc(O)ccc2n1 | i | 0.38
CCOC(=O)C(Nc1ccc2ccccc2c1)C(=O)OCC | i | 1.7
COc1cc(C2C(C(=O)c3ccc(C)o3)=C(O)C(=O)N2CCCn2ccnc2)cc(OC)c1OC (stereo not given) | i | 1.8
FC(F)Oc1ccc(NC(=S)N2CCN(Cc3ccccc3)CC2)cc1 | i | 0.33
O=C(COC(=O)c1cccnc1)Nc1ccc2c(c1)OCO2 | i | -0.62
COCc1nnc(NC(=O)c2cc(C(=O)OC)cc([N+](=O)[O-])c2)s1 | i | 0.15
CC(C)C(C)NC(=O)COC(=O)C1CCN(S(=O)(=O)c2ccc3c(c2)OCCO3)CC1 (stereo not given) | i | 0.84
O=S(=O)(Nc1ncccn1)c1ccc(NC(=S)N2CCN(Cc3ccc(F)cc3Cl)CC2)cc1 | i | 0.01
CCn1c(=O)n(CC)c2cc(N3CCCC3)c(NC(=O)c3cc(Cl)ccc3OC)cc21 | i | -0.72
COCCn1c(SC(C(=O)Nc2cc(C)ccc2OC)c2ccccc2)nnc1-c1ccc(Cl)cc1 (stereo not given) | -9.5* | 0.58*
Cc1cc(N/N=C/c2ccccc2F)c2ccccc2n1 | i | 1.8
Cc1ccc(C(=O)Nc2nccs2)s1 | i | -0.1
CNC(=O)c1ccccc1NC(=O)c1ccc(C)c(S(=O)(=O)N2CCCCC2)c1 | i | 0.03
COc1cc(N(C)C)c([N+](=O)[O-])cc1C(=O)NC(C)CNc1ccc([N+](=O)[O-])cc1Cl (stereo not given) | i | 0.04
Cc1cccc(NC(=O)CNC(=O)c2ccc3c(c2)OCO3)n1 | i | 0.03
CC1CC(NC(=O)Cc2ccc(Br)cc2)CC(C)(C)C1 (stereo not given) | -5.7* | 0.33*
COc1ccc(N2C(=O)C(CC(=O)Nc3ccccc3)N(Cc3ccccn3)C2=S)cc1 (stereo not given) | i | 0.11
CC(C)CNC1=CC(=O)CC(c2ccco2)C1 (stereo not given) | i | 0.46
Cn1c(C(=O)NCCN2CCN(Cc3ccccc3)CC2)cc2c(=O)n(C)c3ccccc3c21 | i | 0.73
COc1ccc(/C=C2\SC(=O)N(CC(=O)Nc3ccc(O)cc3)C2=O)cc1OC | i | 1.2
CC(C)(C)C(=O)Nc1ccccc1C(=O)Nc1ccccn1 | i | 0.05
O=C(NCCNS(=O)(=O)c1cccc(C(F)(F)F)c1)c1cc(OCC(F)(F)F)ccc1OCC(F)(F)F | i | -0.05
The list continues:
SMILES | KCNQ2 inh | KCNQ2 inh baseline
COc1ccc(NC(=O)CCN2CCN(S(=O)(=O)c3ccc(C(C)C)cc3)CC2)cc1 | i | 1.2
COc1ccc(-c2nnc(SCc3csc(N)n3)n2C)cc1 | i | 1.2
COc1cccc(N(CC(=O)N2CCN(C)CC2)S(=O)(=O)c2ccc(C)cc2)c1 | i | 0.24
COc1cccc(C(=O)N(Cc2nc(-c3cccc(C)c3)no2)C(C)C)c1OC | i | -0.67
CC1=NN(C(N)=S)C(=O)C1N=Nc1ccccc1 (stereo not given) | i | 0.05
O=C(NC1CCC(=O)N(CCSc2ccccc2)CC1)OCc1ccccc1 (stereo not given) | i | -0.6
O=C(NCCCn1ccnc1)c1cc(-c2ccncc2)nc2ccccc12 | i | 5.8
O=C(Nc1ccccc1)c1cc2n(n1)C(C(F)(F)F)CC(C1CC1)N2 (stereo not given) | i | 3
CCCc1[nH]nc2c1C(c1ccsc1)C(C#N)=C(N)O2 (stereo not given) | i | -0.34
CCCN1C(=O)CC(C(=O)OC)=C1C | i | 0.04
COc1ccc(N(CC(=O)Nc2ccc(F)c(F)c2)S(=O)(=O)c2c(C)n[nH]c2C)cc1 | i | -0.76
COc1ccc(NC(=O)C2CCCO2)c(OC)c1 (stereo not given) | i | -0.09
CC(Nc1nc(-c2ccc(F)cc2)cs1)c1nc2cc(Cl)c(Cl)cc2n1CCCO (stereo not given) | i | -0.11
CCOC(=O)CSc1nc2ccccc2c(=O)n1-c1ccc(C)cn1 | i | -0.61
O=C(CSc1nnc(-c2ccc(Br)cc2)o1)N1CCN(C(=O)c2ccco2)CC1 | i | 0.55
O=C(Nc1nc(-c2ccc(F)cc2)cs1)c1cccnc1 | i | 0.45
Clc1ccccc1Cn1nc(-c2ccccc2)nc1-c1ccccc1 | i | -3
O=C(NCCC1=CCCCC1)C(=O)NCc1ccccc1Cl | i | 0.52
CNS(=O)(=O)c1cc(N)ccc1C | i | 1.3
COc1ccc(Cc2nc3ccc(C(=O)N(C)CC4COCCO4)cc3o2)cc1 (stereo not given) | i | 1

An excerpt taken from the entries so far:
SMILES | KCNQ2 inh | KCNQ2 inh baseline
O=C(NCCNS(=O)(=O)c1cccc(C(F)(F)F)c1)c1cc(OCC(F)(F)F)ccc1OCC(F)(F)F | i | -0.05
COc1ccc(NC(=O)CCN2CCN(S(=O)(=O)c3ccc(C(C)C)cc3)CC2)cc1 | i | 1.2
COc1ccc(-c2nnc(SCc3csc(N)n3)n2C)cc1 | i | 1.2
COc1cccc(N(CC(=O)N2CCN(C)CC2)S(=O)(=O)c2ccc(C)cc2)c1 | i | 0.24
COc1cccc(C(=O)N(Cc2nc(-c3cccc(C)c3)no2)C(C)C)c1OC | i | -0.67
CC1=NN(C(N)=S)C(=O)C1N=Nc1ccccc1 (stereo not given) | i | 0.05
O=C(NC1CCC(=O)N(CCSc2ccccc2)CC1)OCc1ccccc1 (stereo not given) | i | -0.6
O=C(NCCCn1ccnc1)c1cc(-c2ccncc2)nc2ccccc12 | i | 5.8
O=C(Nc1ccccc1)c1cc2n(n1)C(C(F)(F)F)CC(C1CC1)N2 (stereo not given) | i | 3
CCCc1[nH]nc2c1C(c1ccsc1)C(C#N)=C(N)O2 (stereo not given) | i | -0.34
CCCN1C(=O)CC(C(=O)OC)=C1C | i | 0.04
COc1ccc(N(CC(=O)Nc2ccc(F)c(F)c2)S(=O)(=O)c2c(C)n[nH]c2C)cc1 | i | -0.76
COc1ccc(NC(=O)C2CCCO2)c(OC)c1 (stereo not given) | i | -0.09
CC(Nc1nc(-c2ccc(F)cc2)cs1)c1nc2cc(Cl)c(Cl)cc2n1CCCO (stereo not given) | i | -0.11
CCOC(=O)CSc1nc2ccccc2c(=O)n1-c1ccc(C)cn1 | i | -0.61
O=C(CSc1nnc(-c2ccc(Br)cc2)o1)N1CCN(C(=O)c2ccco2)CC1 | i | 0.55
O=C(Nc1nc(-c2ccc(F)cc2)cs1)c1cccnc1 | i | 0.45
Clc1ccccc1Cn1nc(-c2ccccc2)nc1-c1ccccc1 | i | -3

Other entries:
SMILES | KCNQ2 inh | KCNQ2 inh baseline
CCCCOCC1CN(c2ccccc2)C(=O)CS1 (stereo not given) | i | -2
Clc1cccc(N/N=C(\Cc2nc3ccccc3[nH]2)c2ccccc2)c1 | -6.3* | 0.01*
CCOc1ccccc1N1CCN(S(=O)(=O)c2ccc(Cl)s2)CC1 | i | -1.2
CCc1c(C)nc(SCC(N)=O)c(C#N)c1C | i | -1.2
CC(OC(=O)c1cccc(S(=O)(=O)Nc2ccccc2F)c1)C(=O)NCc1ccc2c(c1)OCO2 (stereo not given) | i | -0.02
CO/N=C/CC(=O)c1ccc(-c2ccccc2)cc1 | i | -0.86
O=C(CSc1nnc2ccccn12)c1ccc(OC(F)F)cc1OC(F)F | i | -0.26
COc1ccc(-n2c(=S)[nH]c3cc(C(=O)Nc4ccc(F)cc4)ccc3c2=O)c(OC)c1 | i | 0.65
O=C(CSc1nc2ccccc2c(=O)n1CC1CCCO1)N1CCN(c2ccccc2)CC1 (stereo not given) | i | -0.37
Cc1ccc(CNC(=O)c2ccc(OCC(C)C)cc2)n1C | i | 0.18
Cc1ccc(S(=O)(=O)NCC(=O)N(CC(=O)NCc2ccco2)Cc2cccs2)cc1 | i | -0.21
O=C(O)c1cc(NC(=O)C2CCCO2)cc(C(=O)O)c1 (stereo not given) | i | -1.3
COc1cc2c(cc1OC)C(c1ccco1)CC(=O)N2 (stereo not given) | i | -0.95
CCOc1ccc2cc(C3CC(c4ccco4)=NN3S(C)(=O)=O)c(Cl)nc2c1 (stereo not given) | i | -0.03
CCc1c(C)sc(NC(=S)N2CC(C)OC(C)C2)c1C(=O)OC (stereo not given) | i | 0.5
O=C(NCc1ccccc1Cl)C1CCC(CNc2c(N3CCOCC3)c(=O)c2=O)CC1 (stereo not given) | i | 1.8
Cc1ccc(CCNC(=O)C2CCCN(C(=O)c3cc4sccc4n3C)C2)cc1 (stereo not given) | i | -0.04
Cc1occc1C(=O)NCc1ccc2c(c1)OCO2 | i | 1.7
COc1ccccc1/C=C/C=N/NC(=O)c1ccc2nc[nH]c2c1 | i | -1.8
CCCn1nnc(NC(=O)Cc2ccc(Cl)cc2)n1 | i | 0.48
Cc1ccc(-c2cnc3c(Cl)c(C)nn3c2)cc1 | i | -0.04
COc1ccc(N(Cc2cc(=O)[nH]c3ccccc23)C(=O)c2ccco2)cc1 | i | 0.73
CCOC(=O)N/N=C\C=C\c1ccco1 | i | 0.04
O=C(COc1ccccc1F)Nc1nnc(-c2ccncc2)s1 | i | -0.29
Cc1ccc(N2C(=O)CC(Sc3nccc(C)n3)C2=O)cc1 (stereo not given) | i | 0.03
Cc1c(NC(=O)Cn2ccc([N+](=O)[O-])n2)c(=O)n(-c2ccccc2)n1C | i | -1.1
Cc1ccc(CC2SC(=Nc3ccccc3)N(c3ccccc3)C2=O)cc1 (stereo not given) | i | 3.4
CC(C)(C)C(=O)N1CCN(c2nc3ccc(Br)cc3s2)CC1 | i | -1.1
COc1cccc(-c2nc(N3CCN(C)CC3)c3ccccc3n2)c1O | i | 0.69
O=C(c1ccccc1F)N1CCN(S(=O)(=O)c2ccc3ccccc3c2)CC1 | i | 0.71
CCOC(=O)c1sc(NC(=O)COC(=O)CNC(=O)C2CCCCC2)c(C(=O)OCC)c1C | i | 0.48
O=C(NNC(=O)C1CCCCC1)c1ccco1 | i | 2.6
CC(CN1CCCCC1)OC(=O)c1cccc(F)c1 (stereo not given) | i | 2.7
O=C1CC(N(Cc2ccco2)C(=O)Nc2ccc(F)cc2)C(=O)N1c1ccc(F)cc1 (stereo not given) | i | -1.6
COc1ccc(C(CNC(=O)Cc2ccc(-c3ccccc3)cc2)N(C)C)cc1 (stereo not given) | i | 0.82
